Compound activity: PubChem BioAssay, National Center for Advancing Translational Sciences (NCATS)
Vaccinia mCherry: vaccinia inhibition (mCherry reporter); Vaccinia virus mCherry reporter infection, fluorescence; about a quarter of the inactives have no number; Potency, µM (top dose mostly 36.5 µM), without a hit: at the highest dose activity change, negative = inhibition, hits mostly inhibitors; hit rate 0.63% among 310,000; AID 720579; active = well fitted inhibition curve with a large enough effect; inconclusive = small, poorly fitted or top-dose-only effect; inactive = no such curve, though single readings can be large or run the other way; tested in A549 cells; also: nearly all actives have a fitted effect of over 35% in size; inactives centre near -10
VACV Venus inh: vaccinia inhibition (Venus reporter). Potency, µM (highest dose often 36.5 µM), for the others: top-dose activity change, negative = inhibition, actives largely listed as inhibitors. Vaccinia virus Venus reporter expression, fluorescence. hit rate 0.46% among 330,000; active means well fitted inhibition curve with a large enough effect; inconclusive means small, poorly fitted or top-dose-only effect; inactive means no such curve, though single readings can be large or run the other way; tested in A549 cells; also: nearly all actives have a fitted effect of over 30% in size; inactives centre near -10
* = called active by the depositor; i = inactive; ? = inconclusive; / = no result given; & = joins results of further samples; [ ] = dose if it differs, or a comment. % is scaled to controls: 0 for no effect and ±100 for the full control effect; potency is read from the fitted curve at half-maximal effect. The order is random, and some 0.88% of all compounds hit somewhere here.

The line under a structure holds: Vaccinia mCherry, VACV Venus inh
O=C(OCC(=O)c1ccccc1Br)c1ccncc1
    -12%, -2%
COc1ccc(NS(=O)(=O)c2ccc(NC(=O)c3ccc(N(C)S(C)(=O)=O)cc3)cc2)cc1
    ?, -25%
COc1cc2c(c(OC)c1OC)C(c1ccc(C)cc1)CC(=O)O2 (stereo not drawn)
    -16%, -11%
O=C(CC[C@H]1O[C@@H](n2cnc3c(NC(=O)c4ccccc4)ncnc32)[C@H](O)[C@@H]1O)NCCCN1CCCC1=O
    57%[activator], 5%
CCOc1ccc(-c2c(C)nn3c(C)c(C(=O)Nc4cc(C)cc(C)c4)cnc23)cc1OCC
    -14%, -13%
CCOC(=O)C1(Cc2cccc(F)c2)CCN(Cc2nc(CC)[nH]c2C)CC1
    i, 8%
CCOc1ccc(Br)cc1/C=N/NC(=O)c1ccncc1
    -14%, 0%
O=C(NC1CCCCC1)c1ccc(-c2ccccc2F)o1
    -15%, -16%
COc1cccc(C(=O)NCCS(=O)(=O)N2CCCCCC2)c1
    -9%, -3%
CCCn1nnnc1NC(=O)COc1ccc(Cl)c(C)c1
    -12%, -2%
O=C(NCc1ccc(Cl)cc1)C1CCN(S(=O)(=O)c2cccc3nonc23)CC1
    -8%, 8%&-8%
Cc1ccc(S(=O)(=O)CCC(=O)Nc2nnc(-c3ccc(F)cc3)o2)cc1
    ?, ?
O=C(NCc1ccc(Cl)cc1)c1cnccn1
    -11%, 6%
CCOC(=O)c1cccc(-n2c(C)cc(C=O)c2C)c1
    -9%, 3%
Cc1ccc(N=C2NC(=O)c3cc([N+](=O)[O-])ccc32)cc1
    -22%, -19%
CCOC(=O)c1[nH]c2cc3c(cc2c1NC(=O)CN1CC(C)CC(C)C1)OCO3 (stereo not drawn)
    -3%, -9%
COc1cc2nc(N3CCCCC3)nc(NC3CC3)c2cc1OC
    -4%, -20%
COc1cccc(NC(=O)C2CCC(CNS(=O)(=O)c3ccc4c(c3)CCCC(=O)N4)CC2)c1 (stereo not drawn)
    -18%, -4%
CCOc1ccc(NS(=O)(=O)c2ccc(OCC(=O)N3CCCC3)cc2)cc1
    -11%, -8%
COc1ccc(C2Nc3ccccc3C(=O)N2Cc2ccccc2)cc1COc1ccc([N+](=O)[O-])c(C)c1 (stereo not drawn)
    40%[activator], 4%
COc1cccc2c1C(=O)c1c(O)c3c(c(O)c1C2=O)C[C@@](O)(C(C)=O)C[C@@H]3O[C@H]1C[C@H](N)[C@H](O)[C@H](C)O1
    228%[activator], i
CCOc1ncccc1C(=O)Nc1ccc2c(c1)OCCO2
    -14%, 6%
O=C(COC(=O)COc1cccc(Br)c1)NCc1ccc2c(c1)OCO2
    -19%, -8%
O=C1CN(C(=O)CCCc2c[nH]c3ccccc23)c2ccccc2N1
    -25%, -17%
CC(=O)c1ccc(NC(=O)C2CCCN(S(=O)(=O)c3ccc4c(c3)CCCN4C(C)=O)C2)cc1 (stereo not drawn)
    -3%, -9%
CCCN1CCN(c2ncnc3sc(C(=O)Nc4c(C)cc(C)cc4C)c(C)c23)CC1
    -13%, -23%
CC1=C(C)CC(C(=O)N2CCN(Cc3ccccc3)CC2)C(C(=O)O)C1 (stereo not drawn)
    i, -9%
COC(=O)CN(n1cnnc1)S(=O)(=O)c1ccc(C)cc1
    /, 0%
COCCN(CCOC)Cc1cc(=O)oc2cc(C)ccc12
    3%, 4%
CCn1nc(C)c(NS(=O)(=O)c2ccccc2)c1C
    -12%, -11%

(listing goes on)
The line under a structure holds: Vaccinia mCherry, VACV Venus inh
O=C(c1cc(-n2cnnc2)ccc1Cl)N1CCN(c2nc(-c3ccccc3)cs2)CC1
    /, ?
COc1cccc(NC(=O)C(=O)NCCCn2ccnc2)c1
    9%, 10%
Cc1nn(C)c(C)c1S(=O)(=O)N1CCc2ccccc21
    /, -16%
COCCn1c(SCC(=O)NC2CC2)nnc1-c1ccco1
    i, -4%
O=C(CC1C(=O)NCCN1Cc1ccc(F)cc1)NCCOc1cccnc1 (stereo not drawn)
    i, 13%
Cc1ccccc1NC(=O)Cc1nc(COC(=O)c2ccc(NC(N)=O)cc2)cs1
    -19%, -7%
COc1cc2c(cc1OC)C1CCN3C(=O)CCC3N1CC2 (stereo not drawn)
    -12%, -4%
CSc1ccccc1NC(=O)CN(C)CC(=O)NCc1ccccc1
    i, 9%
COc1ccc(CNC(=O)C/C(C)=N/NC(=O)COc2ccc(Br)cc2)cc1
    -6%, -8%
COc1cccc(CN2CCc3nc(Nc4ccc5c(c4)OCCO5)ncc3C2)c1OC
    -13%, 2%
Cc1ccc(C(=O)COC(=O)CCC(=O)NC2CCCCC2)cc1C
    -15%, -16%
CC(=O)CS(=O)(=O)c1ccc(Oc2ccc(S(=O)(=O)CC(C)=O)cc2)cc1
    /, -14%
Cc1c(N=C2SC(CC(=O)Nc3ccccc3)C(=O)N2CCN2CCOCC2)c(=O)n(-c2ccccc2)n1C (stereo not drawn)
    -13%, -6%
COCCNc1nc(Nc2ccc(C#N)cc2)c2sccc2n1
    i, -19%
Cn1nc(CC(=O)NC2CCCCCC2)c2ccccc2c1=O
    i, -22%
COc1ccc(C)cc1NC(=O)CSc1nc2ccccc2nc1N1CC(C)OC(C)C1 (stereo not drawn)
    -8%, -11%
Cc1cc(-c2ccccc2)nc(Oc2cccc(C(F)(F)F)c2)c1S(C)(=O)=O
    /, ?
O=C(COC(=O)/C=C/c1cccc(Cl)c1Cl)Nc1ccc2[nH]c(=O)[nH]c2c1
    -16%, -6%
Cc1cc(C)c2c(CC(=O)N(Cc3ccccc3)C3CCS(=O)(=O)C3)coc2c1 (stereo not drawn)
    -12%, 5%
CCOC(=O)[C@]12CCC=C1N(Cc1ccc(Cl)cc1Cl)C(=O)[C@H](CC(=O)NCc1ccc(OC)c(OC)c1)C2
    -26%, -21%
N#Cc1ccccc1OCC(=O)OCC(=O)NC1CCCCC1
    -9%, -6%
O=C(CCCN1CCOCC1)c1ccc2c(c1)OCCO2
    -16%, -18%
COc1cccc(Cl)c1NC(=O)N1CCN(c2cc(C)nc3ccccc23)CC1
    -24%, ?
O=C(Cc1cc(C(=O)O)c2ccccc2n1)Nc1ccccc1
    ?, ?
Cc1ccc(N(C(=O)c2csnn2)C(C(=O)NC2CCCCC2)c2cccnc2)cc1C (stereo not drawn)
    -15%, -13%
Nc1cc(=O)n(Cc2ccccc2)c(=O)n1-c1ccc(F)cc1
    -11%, -18%
Cc1cc(C)cc(N(CC(=O)Nc2c(C)cc(C)cc2C)S(=O)(=O)c2c(C)nn(C)c2C)c1
    -11%, -12%
COCc1cc(C)nc(Nc2ccc(C)cc2C)c1C#N
    -12%, -5%
Brc1ccc(Oc2ncc(CN3CCN(c4ccccc4)CC3)s2)cc1
    -12%, -12%
CCOc1nc(N(C)C)nc(-n2nnc(C(C)=O)c2C)n1
    -7%, -2%

Following part.
structure,Vaccinia mCherry,VACV Venus inh
COc1ccc(CC(=O)Nc2cccc(C(=O)Nc3ccccc3C(=O)O)c2)cc1OC,-11%,-4%
COc1ccc(C(=O)N2CCC2(C)C(=O)NC(C)C)cc1OC (stereo not drawn),11%,4%
COc1cccc(N(C(=O)c2snc(C(N)=O)c2N)C(C(=O)NCC2CCCO2)c2cccs2)c1 (stereo not drawn),?,-4%
CC(C)c1cc2cc3ccc(=O)oc3cc2o1,i,-8%
CCN(CC)C(=O)c1sc2c(c1C)c(=O)n(-c1ccccc1)c(=O)n2Cc1c(C)cc(C)cc1C,-6%,-20%
Cc1ccc(C)c(C(=O)CC2(O)C(=O)N(C)c3ccccc32)c1 (stereo not drawn),-5%,-9%
CCOC(=O)C[C@H]1c2ccc(C(F)(F)F)cc2S(=O)(=O)N1c1ccccc1,-12%&-14%,-4%&-2%
CC(C(=O)Nc1cccc([N+](=O)[O-])c1)N1CCN(C/C=C/c2ccccc2)CC1 (stereo not drawn),-20%,-26%
CCOc1ccc(NC(=O)N2C[C@H]3C[C@@H](C2)c2cccc(=O)n2C3)cc1,4%,12%
CCOc1ccc(CCNC(=O)CCCc2nnc3n(CC(C)C)c(=O)c4sccc4n23)cc1,-12%,-10%
Cc1nnc(NC(=O)CCCCCN2C(=O)C3C4C=CC(C4)C3C2=O)s1 (stereo not drawn),i,-14%
O=C(c1ccc(Br)o1)N1CCN(c2ccc3nnc(-c4ccccc4)n3n2)CC1,-18%,-24%

One compound at a time (already shown). Order of screens: Vaccinia mCherry	VACV Venus inh
`O=C(c1ccc(Br)o1)N1CCN(c2ccc3nnc(-c4ccccc4)n3n2)CC1` as listed: -18%	-24%
`CC(C)c1cc2cc3ccc(=O)oc3cc2o1` as listed: i	-8%
`Cc1ccc(C)c(C(=O)CC2(O)C(=O)N(C)c3ccccc32)c1` (stereo not drawn) as listed: -5%	-9%

Other records follow.
structure,Vaccinia mCherry,VACV Venus inh
CN(C)C(CNS(=O)(=O)c1ccc(Cl)cc1)c1cccnc1 (stereo not drawn),-11%,2%
Cc1ccsc1C(=O)NNC(=O)C1CCCCC1C(=O)O (stereo not drawn),-18%,-14%
CCCn1c(=S)[nH]c2cc(Cl)ccc21,-5%,4%
CC(C)CNC(=O)C1(C)CCCCCN1C(=O)c1cccnc1 (stereo not drawn),15%,3%
CCCN(C)C1CN(Cc2cn(Cc3cccc(Cl)c3)nn2)S(=O)(=O)C1 (stereo not drawn),0%,-11%
COC(=O)c1sc2cccc(F)c2c1S(=O)(=O)N1CCN(c2ccc(C)cc2C)CC1,-9%,0%
CCOC(=O)C1=CCN(S(=O)(=O)c2ccccc2C(=O)OC)C1c1ccc(Cl)cc1 (stereo not drawn),11%,-1%
O=C(c1ccccc1)N1CCN(S(=O)(=O)c2ccccc2)CC1,-10%,-7%
COc1ccc(C(=S)Nc2ccc(C)cc2)cc1,i,-1%
O=C(Nc1ccc(F)cc1)NC1CCCCC1,i,-9%
Cc1ccc(S(=O)(=O)N2CCCCC2CCNC(=O)C(=O)NC2CCCC2)cc1 (stereo not drawn),-13%,-27%
CC(=O)Nc1ccc(NC(=O)c2c(-c3ccccc3Cl)noc2C)c(C)c1,-2%,-9%

New compounds follow.
structure,Vaccinia mCherry,VACV Venus inh
COc1cc(C2c3sc(=O)[nH]c3SC3C(=O)N(c4ccc(Br)cc4)C(=O)C32)ccc1O (stereo not drawn),i,3%
COc1ccccc1C(=O)Nc1cccnc1,-1%,1%
COc1ccc(NC(=O)c2ccccc2NS(=O)(=O)c2ccc(C)cc2)c([N+](=O)[O-])c1,-22%,-1%
CCOc1ccc(C(=O)NC(C(=O)NCC2CCCO2)C(C)C)cc1 (stereo not drawn),i,-3%
Cc1cc2oc(=O)cc(CN3CCN(Cc4ccc5c(c4)OCO5)CC3)c2cc1C,-12%,-9%
COc1ccc(OC)c2cc3ccccc3cc12,-2%,22%
Oc1ccc(-c2csc(-c3ccccc3)n2)cc1O,?,?
COc1ccc2nc(N(Cc3cccnc3)C(=O)c3ccc4c(c3)OCCO4)sc2c1,1%[7.34 µM],-7%[7.34 µM]
COc1ccccc1C(=O)Nc1ccc(C(=O)/C=C/c2cccs2)cc1,-3%,-3%
CCCc1cc(=O)oc2c(C)c(OCC(=O)c3ccc(N4CCCC4)cc3)ccc12,2%,5%
Cc1cccc(C)c1N1CCN(C(=O)N2CCCCC2)CC1,i,0%
COc1ccc(-c2nnn(CC#N)n2)cc1OC,/,-11%

Remaining list, next part.
structure,Vaccinia mCherry,VACV Venus inh
Cc1cccc(NC(=O)C2Cc3ccccc3CN2C(=O)OCc2ccccc2)c1C (stereo not drawn),i,-6%
Cc1ccc(Cc2nc(-c3cccc(C)c3)no2)cc1,-6%,-10%
CC(C)Oc1ccccc1-c1cc(C(=O)N/N=C/c2cccnc2)c2ccccc2n1,1%,9%
COc1ccc(C(=O)/C=C/c2ccc(OC)c(COc3ccccc3F)c2)cc1,i,-13%
CCN(CCn1cccn1)C(=O)c1cc(COc2cc(C)ccc2C)on1,-1%,-14%
N#CC(=NCc1cccnc1)C1=C(O)c2ccccc2C1=O,-8%,-9%
Cc1onc(-c2ccccc2)c1C(=O)Nc1sc2c(c1C#N)CCC(C)C2 (stereo not drawn),?,?
CCCCNC(=S)NNC(=O)c1cc(-c2cccnc2)nc2ccccc12,-1%,-17%
O=C(NNC(=O)C12CC3CC(CC(C3)C1)C2)c1cnccn1,-28%,-12%
c1ccc(-c2nc(NCCCn3ccnc3)c3ccccc3n2)cc1,i,-13%
COC(=O)c1cccc(-n2c(CCC(=O)O)ccc2-c2cccs2)c1,-14%&0%,-7%&-11%
Cc1cc(C(=O)COC(=O)c2ccc[nH]c2=O)c(C)n1-c1ccc(F)cc1,i,-10%

Next structures.
structure,Vaccinia mCherry,VACV Venus inh
Clc1ccc(-c2cc(-c3nnc4n3CCCCC4)c3ccccc3n2)cc1,-16%,-10%
O=C1CNC(=S)N1CCc1ccc(O)c(O)c1,i,16%
C#CCNC(=O)C1=C[C@H](c2coc3ccccc3c2=O)[C@@H](CCCO)[C@H](OCC)O1,-11%,-18%
CNc1cc(N2CCCC2)ccc1[N+](=O)[O-],-17%,-13%

2 of the compounds above, field by field:
Cc1nn(C)c(C)c1S(=O)(=O)N1CCc2ccccc21
- Vaccinia mCherry: /
- VACV Venus inh: -16%

COCCn1c(SCC(=O)NC2CC2)nnc1-c1ccco1
- Vaccinia mCherry: i
- VACV Venus inh: -4%

Looked up by compound from the entries so far (2):
structure,Vaccinia mCherry,VACV Venus inh
Cc1cccc(C)c1N1CCN(C(=O)N2CCCCC2)CC1,i,0%
COc1cccc(N(C(=O)c2snc(C(N)=O)c2N)C(C(=O)NCC2CCCO2)c2cccs2)c1 (stereo not drawn),?,-4%
